Assay outcomes from PubChem BioAssay.
Menin MLL FP FL: displaces fluorescein MLL peptide from human menin; Fluorescence polarization, fluorescein-MLL peptide displacement from menin; FP activity change, % at 61.4 µM; 290,000 tested, under 10 active; AID 1766; inconclusive = falling polarisation curve, or a change in total fluorescence; inactive = total fluorescence flat and polarisation flat or rising; no compound was filed as active; the % refers to the polarisation; negative = inhibition;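 note: % of control where 0% means no effect; inhibitors lower the polarisation; unlabelled MLL peptide was the positive control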
gsp antag: antagonists of gsp mutant (McCune-Albright syndrome) | AID 624288 | 340,000 tested, 0.4% active | gsp-mutant cells, cAMP HTRF, 30 min; control for the full effect not named in the record | Potency, µM (highest dose often 76.9 µM), for the others: top-dose activity change, negative = inhibition, actives largely listed as inhibitors; active = falling curve of any shape with a large fitted effect; inconclusive = falling curve, mostly with a smaller effect; inactive = flat or rising curve; cell line not stated here;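 note: intracellular cAMP measured with PDE inhibitor Ro 20-1724 present during compound exposure; potency is the fitted concentration of half-maximal effect; % is set by controls: 0 for no effect and ±100 for the full control effect; nearly all actives have a fitted effect of over 65% in size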
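Cells in G418 medium, seeded 16-24 h, 37C; buffer exchange to DPBS + 1 mM CaCl2, 0.5 mM MgCl2, 0.05% BSA; cpds in DMSO + […] (300 uM stock), 30 min 37C; HTRF cAMP detection.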
ClpP mod: qHTS Assay for Activators of ClpP; ATP-dependent Clp protease proteolytic subunit (Bacillus subtilis (strain 168)), P80244; purified B. subtilis ClpP, FRET peptide cleavage, 20 min; Potency, µM (top dose mostly 57.5 µM), without a hit: top-dose activity change, negative = active; 340,000 tested, 1.9% active; AID 651965, 2013; active = well fitted falling curve with a large enough effect; inconclusive = small, poorly fitted or top-dose-only effect; inactive = no such curve, though single readings can be large or run the other way; note: potency is the fitted concentration of half-maximal effect; the source files actives as falling curves though it sought activators and does not explain the sign; nearly all actives have a fitted effect of over 65% in size; many hits overshoot -100%
Target sequence (P80244 whole entry, looked up): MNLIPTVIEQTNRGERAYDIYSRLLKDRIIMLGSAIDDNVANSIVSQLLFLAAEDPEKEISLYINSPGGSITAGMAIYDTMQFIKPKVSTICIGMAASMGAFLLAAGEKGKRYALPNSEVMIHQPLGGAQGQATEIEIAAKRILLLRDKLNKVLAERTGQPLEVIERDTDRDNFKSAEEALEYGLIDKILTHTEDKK
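FRET quenching reversal measured ClpP activation: 10 microg/mL B. subtilis ClpP at pH 8 with the FRET-FV decapeptide, read at 430 nm after 320 nm excitation. The 20-min minus 0-min signal was scaled between DMSO/no-enzyme wells and ADEP (5.8 microM final).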
Sfp PPTase inh: blocks B. subtilis Sfp PPTase activity; Q9F4F7; Biochemical Sfp PPTase activity, qHTS; Potency, µM, for inactives: max response, negative = inhibition, actives largely listed as inhibitors; 310,000 tested, 3.5% active; AID 1490; active = well fitted inhibition curve with a large enough effect; inconclusive = small, poorly fitted or top-dose-only effect, or another doubt; inactive = no such curve, though single readings can be large or run the other way;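 note: the enzyme is Sfp with the accession as filed and its product quenches rhodamine fluorescence; potency is the fitted concentration of half-maximal effect; 0% = enzyme reaction without inhibitor and -100% = no enzyme wells; top concentration of the series not given in the record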
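After 15 min at room temperature with compound, 15 nM Sfp received 5 uM rhodamine-CoA plus 12.5 uM BHQ-2-ybbR (50 mM Hepes pH 7.6, 10 mM MgCl2). Rate came from the fluorescence difference over 30 min, ex 525/em 598 nm.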
D2 PAM: positive allosteric modulators of human D2 dopamine receptor | P14416 | AID 624464 | potentiation, % (no concentration beside the values) | DiscoveRx D2 beta-arrestin cells, luminescence, 90 min; 100% = 57 uM dopamine signal | 360,000 tested, 0.23% active; active = potentiation of 50% or more; inconclusive = 30% to 50%; inactive = 30% or less;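 note: compound concentration not given in the record; tested on top of an EC20 dose of dopamine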
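D2 cells co-treated with compound plus 50 nM dopamine (EC20) for 90 min at 37 deg C to detect potentiation. Beta-arrestin recruitment was read as enzyme-fragment luminescence after 1 h at ambient temperature. Full response was set by 57 uM dopamine.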
TRPV1 PAM: potentiators of human vanilloid receptor 1 (TRPV1); Q8NER1; TRPV1-expressing cells, Fluo-8 calcium influx, capsaicin EC20 potentiation; host cell line not named in the record; control for the full effect not named in the record; potentiation, % at 8.33 µM; 320,000 tested, 0.02% active; active means potentiation above 80%; inconclusive means 30% to 80%; inactive means below 30%; note: 0% is about no effect
Target sequence (Q8NER1 whole entry, looked up): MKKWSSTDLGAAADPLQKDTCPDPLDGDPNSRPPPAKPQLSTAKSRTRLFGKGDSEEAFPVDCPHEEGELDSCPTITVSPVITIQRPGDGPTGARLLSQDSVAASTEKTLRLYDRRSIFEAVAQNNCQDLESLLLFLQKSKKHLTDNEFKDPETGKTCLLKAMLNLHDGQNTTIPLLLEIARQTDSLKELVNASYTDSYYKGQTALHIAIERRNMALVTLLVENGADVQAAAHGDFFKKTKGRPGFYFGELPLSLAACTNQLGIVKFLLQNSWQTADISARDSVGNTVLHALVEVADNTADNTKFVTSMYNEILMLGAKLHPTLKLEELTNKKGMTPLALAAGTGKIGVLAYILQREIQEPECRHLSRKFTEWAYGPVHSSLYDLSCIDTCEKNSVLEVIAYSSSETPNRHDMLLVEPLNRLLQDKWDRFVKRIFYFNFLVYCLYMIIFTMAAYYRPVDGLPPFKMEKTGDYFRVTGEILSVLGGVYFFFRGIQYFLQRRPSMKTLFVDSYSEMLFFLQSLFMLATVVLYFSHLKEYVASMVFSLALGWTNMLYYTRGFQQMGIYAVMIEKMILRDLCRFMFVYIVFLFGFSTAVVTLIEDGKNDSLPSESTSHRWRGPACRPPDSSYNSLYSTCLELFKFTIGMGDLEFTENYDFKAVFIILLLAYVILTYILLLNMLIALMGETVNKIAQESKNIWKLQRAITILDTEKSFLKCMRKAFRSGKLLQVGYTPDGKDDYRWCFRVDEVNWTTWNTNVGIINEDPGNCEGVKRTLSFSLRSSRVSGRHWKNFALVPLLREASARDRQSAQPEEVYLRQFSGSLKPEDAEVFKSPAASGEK
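Cells expressing TRPV1 were dye-loaded with Fluo-8 and read kinetically: 10 s baseline, 3 min after compound (agonist portion), then 2 min after EC20 capsaicin (allosteric enhancer portion). Calcium-bound dye fluorescence at 480/520 nm.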
gsp agonist: gsp mutant agonism; gsp mutant cells, cAMP HTRF, 30 min; control for the full effect not named in the record; Potency, µM (titrated, usually from 76.9 µM), for the others: at the top dose activation (cAMP increase), actives largely listed as activators; 340,000 tested, 0.13% active; active = well fitted activation curve with a large enough effect; inconclusive = small, poorly fitted or top-dose-only effect, or another doubt; inactive = no such curve, though single readings can be large or run the other way; cell line not stated here;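 note: phosphodiesterase inhibitor Ro 20-1724 added with compounds to block cAMP breakdown; potency is the fitted concentration of half-maximal effect; nearly all actives have a fitted effect of over 60% in size; about a fifth of the inactives were tested at one dose only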
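Cells stably selected in G418 were plated at 2000/well, grown 16-24 hr, then given compounds in DMSO with the PDE inhibitor […] (300 uM solution added) for 30 min at 37C; cAMP was read by HTRF.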
An asterisk follows results filed as active; ? = inconclusive; / = no result given; & = joins results of further samples; [ ] = remark or other dose.

SMILES	Menin MLL FP FL	gsp antag	ClpP mod	Sfp PPTase inh	D2 PAM	TRPV1 PAM	gsp agonist
Cc1ccc(NS(=O)(=O)c2ccc(C(=O)NCc3ccc(S(N)(=O)=O)cc3)cc2)cc1	/	-6%	-8.1%	/	-7	/	-1%
COc1ccc(C(=O)Nc2ccc(OCC(F)(F)C(F)F)c(C(F)(F)F)c2)cc1OC	3.7	-8%	2.3%	22%	-2	?	-1%
CC(=O)N(Cc1ccco1)Cc1cc2cccc(C)c2n2nnnc12	-2.5	/	/	-4%	/	-6	/
O=C(Nc1nc2n(n1)C(c1ccccc1)CC(c1ccc(Cl)cc1)N2)c1ccco1 (stereo unspecified)	2.8	-4%	-2.7%	5%	-10	-2	-3%
O=[N+]([O-])c1ccc(NN=Cc2cccc(O)c2)nc1	/	-10%	/	/	-4	/	2%
CCOC(=O)C1=NN(C(=O)Cc2ccccc2)C(O)(c2ccc(Cl)cc2)C1 (stereo unspecified)	0.4	-21%	-0.9%	-10%	7	-10	-1%
Cc1c(C(=O)NC(C)C)oc2c1-c1[nH]ncc1CC2	-0.9	-18%	?	4%	?	-9	-11%
CCOc1ccc(NC(=O)Nc2cc(C)ccc2F)cc1	-2.2	2%	-1.1%	-3%	-3	11	-1%
Nc1nc(NC(=O)/C=C/c2ccc(F)cc2)nn1-c1ccccc1	4.2	6%	0.4%	6%	-7	/	1%[15.4 µM]
CC(c1ccco1)N(C(=O)C12CC3CC(CC(C)(C3)C1)C2)c1ccccn1 (stereo unspecified)	0.2	2%[15.4 µM]	-0.5%	-20%	-21	-20	3%
COC(=O)COc1ccc(C(=O)OC)cc1	0.8	-7%	-1.6%	14%	-18	4	-16%
CCc1nnc(NC(=O)CC(C)c2ccccc2)s1 (stereo unspecified)	-3.4	9%	-1.5%	15%	-1	3	1%
COCCCNC(=O)CCCn1c(=O)c2ccccc2n(CC(=O)Nc2c(C)cc(C)cc2C)c1=O	2.0	-2%	-0.6%	3%	-6	-3	-9%[15.4 µM]
Cc1ccc(C(=O)OCC(=O)Nc2ccccc2Sc2ccccc2)cc1C	4.2	0%	-1.1%	-9%	-2	9	-8%
COc1ccc([N+](=O)[O-])cc1NC(=O)C(C)OC(=O)c1cccnc1Cl (stereo unspecified)	-0.1	-6%	/	13%	-8	4	20%[15.4 µM]
Nc1nc(SCC(=O)NNc2c(Cl)cc(Cl)cc2Cl)n[nH]1	9.5	9%	-1.3%	-23%	-15	18	1%
CC1(C)NC(=O)N(CC(=O)O)C1=O	-1.6	9%	0.4%	11%	-13	3	1%
O=C(N/N=C/c1cc([N+](=O)[O-])ccc1O)c1cc(-c2ccccc2)nc2ccccc12	?	-31%	1.0%	?	6	-16	?
CCOc1ccc(CCNC(=O)COC(=O)Cn2nc(C)c([N+](=O)[O-])c2C)cc1OCC	/	-10%	1.2%	/	-13	-8	2%[15.4 µM]
CCOC(=O)c1sc(NC(=O)C(C)C)c(C#N)c1C	0.1	3%	/	12%	-14	-3	-46%[15.4 µM]
O=C(NCc1ccccc1)c1ccc(CS(=O)Cc2cccc(Cl)c2)o1 (stereo unspecified)	/	/	-0.9%	/	-4	/	-15%
CCOc1ccc(C(=O)Nc2ccc(-c3nc4ccccc4[nH]3)cc2)cc1[N+](=O)[O-]	0.6	8%	1.2%&1.3%	11%	-14	6	24%
CCn1cnc2cc([N+](=O)[O-])ccc21	-0.2	11%	/	8%	4	5	?
O=C1CC(=O)N(CCc2ccc(F)cc2)C(=O)N1	18	-3%	-1.1%	-9%	-4	8	3%
Cc1cc(C(=O)OCC(=O)NC(C)C)c2ccccc2n1	-2.4	10%	-19%	21%	-4	0	0%
C/C(Cl)=C\CNC(C)c1ccccc1 (stereo unspecified)	0.2	7%	2.3%	16%	-15	2	11%
O=C(COC(=O)COc1ccc(Cl)cc1Cl)NC1CCCCCC1	/	3%	0.2%	/	-1	-7	-29%
CCNC(=O)NC(C(=O)OC)C12CC3CC(CC(C3)C1)C2 (stereo unspecified)	0.6	11%	2.3%	2%	-11	-1	2%[15.4 µM]
Oc1ccc(CN2CCCCC2)c2cccnc12	2.5	-15%	-0.9%	18%	-2	-1	-47%[inhibitor]
CN(C(=O)CSCC(=O)Nc1ccc(Cl)cc1)C1CCCCC1	/	-4%	/	/	-8	/	-2%
COc1ccc2cc(C3(C)NC(=O)N(CC(=O)NCC(F)(F)F)C3=O)ccc2c1 (stereo unspecified)	5.8	-9%	-4.7%	12%	-4	4	-1%
CNC(=S)NNC(=O)c1ccccc1Cl	3.9	-4%	-1.5%	5%	-9	3	6%
COc1ccc(C2NC(=S)NC(C)=C2C(=O)N2CCOCC2)cc1 (stereo unspecified)	-1.2	-5%	-7.8%	?	-8	3	-6%
CN1C(C(=O)Nc2ccc(C(=O)O)cc2)=C(O)c2ccccc2S1(=O)=O	/	-6%	-1.1%	/	-3	0	-28%
O=C(COC(=O)/C=C/c1ccc(Cl)c(Cl)c1)NC1CCCC1	/	16%	-2.6%	/	1	-3	21%
CC(C)Cc1ccc(/C=C/C(=O)N2CCCCC2)cc1	-0.1	9%	0.4%	1%	-27	-4	-10%[15.4 µM]
CCc1ccc(OCCCC(=O)Nc2ccc(S(=O)(=O)Nc3cc(C)nc(C)n3)cc2)cc1	-1.1	-23%	/	16%	-1	3	-4%[15.4 µM]
O=C(NN1C(=O)/C(=C/c2cccnc2)SC1=S)C(c1ccccc1)c1ccccc1	6.2	-19%	-0.6%	-10%	-12	8	1%
CC(=O)Nc1cc(NC(C)=O)c(N=Nc2ccccc2)cc1C	0.4	-20%	0.2%	-2%	-12	-13	-8%
COc1ccc(N2CCN(C(=O)c3ccc(NC(=O)C4=CSCCO4)cc3)CC2)cc1	1.7	-8%	-3.7%	12%	-11	1	17%
O=C(NC(=S)NC1CCCc2ccccc21)c1ccc(F)cc1 (stereo unspecified)	-3.4	9%	0.9%	-5%	-9	-4	-1%[15.4 µM]
O=C1CCC/C1=c1\s/c(=C/c2cccnc2)c(=O)n1-c1ccccc1	/	-2%	0.7%	/	-5	/	9%
CN(c1ccc(F)cc1)S(=O)(=O)c1ccc(Cl)c(C(=O)OCC(=O)NCc2ccco2)c1	-0.3	-20%	0.9%	9%	-9	5	-8%
O=C(NCCc1cccc(F)c1)C1CCN(S(=O)(=O)c2ccccc2)CC1	6.6	-4%	-0.5%	-5%	-8	-26	12%
S=c1oc(-c2ccncc2)nn1CCc1ccncc1	0.2	-5%	1.2%	10%	8	-9	9%
CCCc1cc(C(=O)Nc2cc(OC)ccc2OC)cs1	0.7	-18%	-4.1%	-1%	-9	-5	-6%
Cc1ccc(N(CC(=O)NCc2ccc(F)cc2)S(=O)(=O)c2c(C)nn(C)c2C)cc1	6.8	1%	0.6%&-1.6%	12%	2	-22	-11%
CN(Cc1nc(-c2ccccc2)no1)C(=O)c1ccco1	1.1	9%	/	14%	-9	?	-29%
CC(C)C[C@@H](NC(=O)C1CCC(CNC(=O)[C@@H]2CCCN2C(=O)OC(C)(C)C)CC1)C(=O)O (stereo partly specified)	-2.8	5%	/	9%	1	-4	33%
O=C(c1ccccc1)c1c(O)nc(-c2ccccc2)n(-c2ccccc2)c1=O	4.8	-6%	-0.3%	20%	-7	-2	-1%[15.4 µM]
Cc1ccccc1CN1C(=O)C(O)(CC(=O)c2ccncc2)c2ccccc21 (stereo unspecified)	1.3	18%	1.8%	6%	-18	6	6%

Four entries from above, field by field:
> O=C(NCCc1cccc(F)c1)C1CCN(S(=O)(=O)c2ccccc2)CC1
  Menin MLL FP FL = 6.6; gsp antag = -4%; ClpP mod = -0.5%; Sfp PPTase inh = -5%; D2 PAM = -8; TRPV1 PAM = -26; gsp agonist = 12%

> S=c1oc(-c2ccncc2)nn1CCc1ccncc1
  Menin MLL FP FL = 0.2; gsp antag = -5%; ClpP mod = 1.2%; Sfp PPTase inh = 10%; D2 PAM = 8; TRPV1 PAM = -9; gsp agonist = 9%

> CCCc1cc(C(=O)Nc2cc(OC)ccc2OC)cs1
  Menin MLL FP FL = 0.7; gsp antag = -18%; ClpP mod = -4.1%; Sfp PPTase inh = -1%; D2 PAM = -9; TRPV1 PAM = -5; gsp agonist = -6%

> Cc1ccc(N(CC(=O)NCc2ccc(F)cc2)S(=O)(=O)c2c(C)nn(C)c2C)cc1
  Menin MLL FP FL = 6.8; gsp antag = 1%; ClpP mod = 0.6%&-1.6%; Sfp PPTase inh = 12%; D2 PAM = 2; TRPV1 PAM = -22; gsp agonist = -11%

Part of the list above, limited to gsp agonist, Sfp PPTase inh and Menin MLL FP FL.
| Molecule | gsp agonist | Sfp PPTase inh | Menin MLL FP FL |
| --- | --- | --- | --- |
| CN(c1ccc(F)cc1)S(=O)(=O)c1ccc(Cl)c(C(=O)OCC(=O)NCc2ccco2)c1 | -8% | 9% | -0.3 |
| O=C(NCCc1cccc(F)c1)C1CCN(S(=O)(=O)c2ccccc2)CC1 | 12% | -5% | 6.6 |
| S=c1oc(-c2ccncc2)nn1CCc1ccncc1 | 9% | 10% | 0.2 |
| CCCc1cc(C(=O)Nc2cc(OC)ccc2OC)cs1 | -6% | -1% | 0.7 |
| Cc1ccc(N(CC(=O)NCc2ccc(F)cc2)S(=O)(=O)c2c(C)nn(C)c2C)cc1 | -11% | 12% | 6.8 |
| CN(Cc1nc(-c2ccccc2)no1)C(=O)c1ccco1 | -29% | 14% | 1.1 |
| CC(C)C[C@@H](NC(=O)C1CCC(CNC(=O)[C@@H]2CCCN2C(=O)OC(C)(C)C)CC1)C(=O)O (stereo partly specified) | 33% | 9% | -2.8 |
